Vif TR-FRET = HIV-1 Vif–A3G interaction blockers – biochemical, TR-FRET, GST-Vif 1-94, biotin-A3G peptide, dose response retest, primary screen (AID 1117319); TR-FRET GST-Vif / biotin-A3G peptide binding; higher % means a stronger effect; test concentration not given here; strong numbers were not always called active; inhibition, %, or IC50 in µM where a hit was titrated; 260,000 compounds, 0.57% hits;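 active = above the screen mean plus three standard deviations and confirmed in dose response; inconclusive = results disagree or hit not tested in dose response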;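 note: Vif residues 1-94 fused to GST binding biotinylated APOBEC3G peptide 110-148; 0% = full assay without inhibitor and 100% = GST in place of GST-Vif; retest series ran down from 100 µM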
FGF22 binding = binders of recombinant human FGF22 by thermal shift. AID 651658. SYPRO orange fluorescence; percent of sucrose octasulfate shift, DMSO zero. 340,000 compounds, 1.5% hits. calls only at 9.99 µM. Q9HCT0;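 active = melting point raised past a set limit in the mean and every replicate; inconclusive = no clear call; three in four hits are not shown here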
Target sequence (Q9HCT0 whole entry, looked up): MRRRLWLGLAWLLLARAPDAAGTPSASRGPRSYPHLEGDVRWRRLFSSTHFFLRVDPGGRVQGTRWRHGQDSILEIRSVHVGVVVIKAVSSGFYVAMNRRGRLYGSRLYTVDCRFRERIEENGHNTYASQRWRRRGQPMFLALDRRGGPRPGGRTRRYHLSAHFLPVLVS
UCH37 inh = inhibitors of human deubiquitinating enzyme UCH37. Q9Y5K5. purified proteasome/UCH37, Ub-AMC cleavage fluorescence. inhibition, % (test concentration not listed). 330,000 compounds, 0.33% hits. AID 588478;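 active = mean of two replicates above 20%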;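 note: 0% = compound-free wells with enzyme and 100% = wells lacking proteasome; stock transfer was 100 nL into about 20 µL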
Target sequence (Q9Y5K5 whole entry, looked up): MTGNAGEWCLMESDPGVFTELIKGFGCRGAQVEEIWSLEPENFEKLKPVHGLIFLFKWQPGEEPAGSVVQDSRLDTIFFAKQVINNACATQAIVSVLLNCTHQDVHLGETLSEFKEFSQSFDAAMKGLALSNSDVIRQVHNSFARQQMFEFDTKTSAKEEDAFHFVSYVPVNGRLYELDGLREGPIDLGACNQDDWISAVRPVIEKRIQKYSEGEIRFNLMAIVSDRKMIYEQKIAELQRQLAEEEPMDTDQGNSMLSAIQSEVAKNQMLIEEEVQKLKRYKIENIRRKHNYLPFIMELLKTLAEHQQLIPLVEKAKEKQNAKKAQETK
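Signal – fluorescence, ex 355 nm, em 460 nm · System – Proteasome-bound UCH37 · Input – 0.15 nM proteasome as dispensed · Timing – 30 min preincubation with enzyme, 25 min cleavage at room temperature · Read-out basis – percent inhibition of cleavage signal versus uninhibited and no-proteasome wells · Medium – Tris-HCl pH 7.4 with ATP-MgCl2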
RanGTP-Impb inh = inhibitors of RanGTP-importin-beta interaction, primary screen, biochemical, FRET, CFP-Ran, YFP-importin-beta, homogeneous; cell-free CFP-Ran/YFP-importin-beta FRET ratio; inhibition, % (no concentration beside the values); 300,000 compounds, 1.1% hits; AID 2216;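 active = most replicates above 15%; inconclusive = exactly half above 15%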;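 note: 0% = DMSO wells and 100% = Ran loaded with GDP instead of GTP; wells of about 40 µL received 100 nL stock; the first replicate is given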
HNF4A DNA FP = change in binding of human HNF4 alpha to DNA | HNF4a-FITC DNA binding, fluorescence polarization, 1 h | activity change, % at 10 µM | 360,000 compounds, 0.3% hits; in the data active = activity change above about 30%, passing the limit was not always enough;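 note: controls were the assay level and a saturating level of protein; the project sought stronger binding though the title names inhibitors; some compounds called inactive have numbers as strong as hits; positive values seem to mean higher polarization but the record does not say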
E coli growth = blocks Escherichia coli growth; AID 1053175; 330,000 compounds, 0.21% hits; OD600 absorbance (no concentration beside the values); OD600, 23 h; stronger effect = lower value;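 active = OD600 absorbance below the run mean of sample wells minus 3.6 SD, in any replicate, cut at about 0.56 in these data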;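 note: stock transfer was 300 nL into about 60 µL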
MLL AF4-AF9 inh = MLL-AF4/AF9 protein interaction inhibition; AID 651704; 350,000 compounds, 0.47% hits; inhibition, % at 10 µM; AlphaScreen, biotin-AF4 peptide binding to FLAG-AF9;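 active = every replicate reaching a set inhibition limit, whatever the replicate mean, cut at about 25% in these data; inconclusive = mean inhibition reaches that limit but some replicates miss it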;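 note: 0% = plate neutral control median and 100% = total signal loss; the record names both 10 and 1 µM as test concentration; the first replicate is given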
Target sequence (P42568 whole entry, looked up): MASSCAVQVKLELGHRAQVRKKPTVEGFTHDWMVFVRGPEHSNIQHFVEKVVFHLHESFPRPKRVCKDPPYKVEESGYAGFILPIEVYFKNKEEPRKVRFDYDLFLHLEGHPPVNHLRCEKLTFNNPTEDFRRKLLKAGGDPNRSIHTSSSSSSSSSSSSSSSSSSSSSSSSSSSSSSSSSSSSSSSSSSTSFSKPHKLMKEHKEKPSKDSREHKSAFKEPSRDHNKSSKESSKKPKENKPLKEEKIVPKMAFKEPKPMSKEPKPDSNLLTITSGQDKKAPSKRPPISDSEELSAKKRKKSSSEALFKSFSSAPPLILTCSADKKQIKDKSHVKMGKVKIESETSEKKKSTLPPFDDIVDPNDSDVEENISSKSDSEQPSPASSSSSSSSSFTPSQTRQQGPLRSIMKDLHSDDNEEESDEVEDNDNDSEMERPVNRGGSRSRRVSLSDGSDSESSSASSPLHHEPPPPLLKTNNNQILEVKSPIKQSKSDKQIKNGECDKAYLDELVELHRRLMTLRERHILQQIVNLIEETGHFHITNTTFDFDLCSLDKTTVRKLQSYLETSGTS
An asterisk follows results filed as active; i = inactive; ? = inconclusive; . = not tested or not shown.

Below each SMILES: UCH37 inh	MLL AF4-AF9 inh	FGF22 binding	E coli growth	Vif TR-FRET	HNF4A DNA FP	RanGTP-Impb inh
CCc1nn2cc(C(=O)c3ccccc3O)cnc2c1-c1ccc(F)cc1
→ 2.9	5.4	i	0.65	-4%	-3.2	-5.5
C#CCSc1nnc(CSc2nc3ccccc3s2)n1-c1ccccc1
→ 2.6	.	.	0.71	6%	2.5	5.1
CCOC(=O)N1CCC(Nc2nc3ccccc3n3nnnc23)CC1
→ -75	.	.	0.71	0%	-8.1	7.7
N#C/C(=C\N1CCCCC1)S(=O)(=O)c1ccc(Cl)cc1
→ 3.3	.	i	0.65	-6%	1.8	-2.3
CCN(C(=O)CN1CCCCC1)C1(C)C(=O)c2ccccc2C1=O
→ 0.5	-2.5	i	0.67	-1%	-2.4	?
Cc1ccc(OCCC(=O)OCC(=O)NCc2ccccc2)cc1
→ 2.3	-22	i	0.67	4%	0.7	2.5
CN=C1S/C(=C\c2ccc(N3CCCC3)c(F)c2)C(=O)N1C
→ 1.5	2.6	i	0.76	-3%	13	7.8
COc1ccc(C(=O)Nc2ccc(NC(=O)c3ccccc3)cc2)cc1S(=O)(=O)N1CCOCC1
→ -2.3	1.4	i	0.7	.	2.8	-1.3
c1ccc(-c2[nH]ncc2CN2CCc3ccccc3C2)cc1
→ 1.7	2.3	i	0.67	-2%	-1.9	3.6
COc1ccc(OC)c(NC(=O)CSc2nnc(CNc3ccc(C)cc3C)o2)c1
→ 1.3	.	.	0.73	9%	0.2	3.7
O=C(c1ccc(OC2CCN(CCCc3ccccc3)CC2)cc1)N1CCCC1
→ 1.2	0.0	i	0.69	.	2.9	1.0
COc1cccc2cc(C(=O)N3CCCCCCC3)c(=O)oc12
→ -0.9	-8.4	i	0.7	.	0.2	-0.6
CC(C)CCNC(=O)C1CCC(=O)N1CCc1ccccc1 (stereo not given)
→ 2.9	-3.3	i	0.68	.	0.0	-0.1
Nc1cc(-c2nn[nH]n2)ccc1F
→ 3.4	.	.	0.68	?	-6.0	0.8
O=C(CCCOc1ccc(Cl)cc1Cl)NCC1CCCO1 (stereo not given)
→ 3.1	.	.	0.71	0%	0.5	1.2
CCN(CC)C(=O)CSc1nc2sc3c(c2c(=O)n1CCCOC)CCC3
→ 3.2	-5.4	i	0.66	.	2.4	1.4
COc1ccc(OCCCN2CCc3ccccc3C2)cc1
→ 1.7	3.1	i	0.64	.	-3.4	0.4
Cc1nc2cc(C(=O)OCC(=O)NC34CC5CC(CC(C5)C3)C4)ccc2n1-c1ccccc1
→ -9.2	.	.	0.67	4%	8.2	3.0
Cc1ccc(NC(=O)C2CCCCC2)cc1C
→ 6.6	-0.3	i	0.69	.	-3.5	.
O=[N+]([O-])c1ccc(Sc2ccncn2)c([N+](=O)[O-])c1
→ .	2.3	i	.	11%	0.6	.
O=c1c(-c2ccc(Br)cc2)coc2c(CN3CCOCC3)c(O)ccc12
→ -42	.	.	0.64	-4%	-0.5	3.9
CCCCNC(=O)NC1C(NC(=O)NCCCC)N(C)C(=O)N1C (stereo not given)
→ -1.8	.	.	0.79	1%	-0.6	-0.4
CC(C)C[C@@H]1O[C@H](CCc2ccccc2)Cc2[nH][nH]c(=O)c21
→ .	-3.2	i	.	.	-3.7	.
O=C(Cn1c(=O)n(-c2cccc(C(F)(F)F)c2)c(=O)c2sccc21)NCC1CCCO1 (stereo not given)
→ 4.3	1.4	i	0.67	.	-2.6	-0.1
CCN1CCCC1CNS(=O)(=O)c1ccc(Br)cc1 (stereo not given)
→ 3.9	-0.6	i	0.67	2%	0.0	5.5
Cc1cccc2nc(CNC(=O)CC3C(=O)NCCN3Cc3cccc(F)c3)cn12 (stereo not given)
→ -4.1	1.9	i	0.71	.	3.8	5.1
CCOC(=O)C(C(=O)NCC1CCCO1)C1CCCCC1 (stereo not given)
→ 4.0	.	.	0.78	5%	-1.2	-8.4
COc1ccc(C(=O)Cn2c(C)nc([N+](=O)[O-])c2Br)cc1
→ 6.6	0.2	i	0.67	11%	2.7	0.1
CC1CN(S(=O)(=O)c2ccc(C(=O)Nc3nnc(-c4ccco4)o3)cc2)CC(C)O1 (stereo not given)
→ 7.4	0.1	i	0.71	1%	0.2	1.7
CCOC(=O)c1c(C)c(/C=N/Nc2ccccc2)n(C)c1C
→ .	13	i	.	72%	11	.
Oc1c(C(c2ccccc2)N2CCCCC2)sc2ncnn12 (stereo not given)
→ 4.0	-7.2	i	0.73	4%	-1.3	-3.6
CCC1CCCCN1Cc1ccc(CNC(=O)CCc2nnc3ccc(N4CCCCC4)nn23)o1 (stereo not given)
→ 0.7	-12	i	0.66	1%	1.5	5.4
CC(C)OC(=O)CSc1nnc(-c2ccc(Cl)cc2)n1N
→ 4.2	.	.	0.65	0%	1.4	-2.7
C[C@H](CO)N1C[C@H](C)[C@H](CN(C)S(C)(=O)=O)Oc2c(cccc2N(C)C)C1=O
→ -0.6	-3.4	i	0.7	.	1.2	.
CCc1nnc(NC(=O)c2ccc(S(=O)(=O)N3CCCCCC3)cc2)s1
→ 1.5	.	.	0.7	?	-0.3	4.3
COc1ccc(C(O)c2nc(-c3ccc4ccccc4c3)cs2)cc1 (stereo not given)
→ .	-6.1	i	.	.	2.6	.
CC1(C)CC(=O)C(CC2C(=O)CC(C)(C)CC2=O)C(=O)C1
→ 0.2	-2.6	i	0.63	5%	-1.1	-2.5
Cc1ccc(O)c(C(=O)c2cnc3c(c2)COc2ccc(C)cc2-3)c1
→ 4.0	.	.	0.74	-3%	-1.5	2.9
COc1ccc2nc(NC(=O)CN3CCOCC3)sc2c1
→ 1.2	.	.	0.72	-1%	0.0	-2.4
CCCCc1nnc(NC(=O)C(C)Sc2nc(O)c(Cc3ccccc3)c(=O)[nH]2)s1 (stereo not given)
→ 8.4	-3.4	i	0.67	.	-0.2	-5.8
CC(C)(C)c1cc(-n2ccnc2)n2ncc(-c3ccc(Cl)cc3)c2n1
→ -0.9	.	.	0.75	-6%	-1.5	-1.5
Cc1c(Cc2ccccc2)c(=O)oc2cc(OCC(=O)N3CCC(C(=O)O)CC3)ccc12
→ -271	-1.0	i	0.75	.	-0.2	1.3
CCO[C@H]1OC(C(=O)N2CCOCC2)=C[C@@H](C2CC2)[C@@H]1CCCO
→ -0.8	0.6	i	.	-1%	1.8	-1.2
Cc1ccc2nc(NC(=O)C3CCN(S(=O)(=O)c4ccc5c(c4)oc(=O)n5C)CC3)sc2c1
→ 8.6	-9.4	i	0.74	1%	1.6	4.9
Cn1nc(C(=O)Nc2ccc(Br)cc2)cc1C(=O)Nc1ccc(Br)cc1
→ -1.7	-0.8	i	0.63	.	0.4	-1.1
CCCCCN(C(=O)CCC(=O)OCC(=O)NC1CCC(C)CC1)c1c(N)n(CCCC)c(=O)[nH]c1=O (stereo not given)
→ 2.4	4.0	i	0.61	1%	2.7	11
Brc1ccc(-c2noc(CCc3ccccc3)n2)o1
→ 2.1	-1.5	i	0.71	-2%	4.3	-7.4
Fc1ccccc1N1CCN(c2cnc3ccccc3n2)CC1
→ -4.7	.	.	0.7	22%	0.8	1.5
O=[N+]([O-])c1ccc2c(c1)nc(CO)n2Cc1ccccc1
→ 2.6	-0.8	i	0.66	.	1.9	5.8
c1ccc(-c2nc(-c3nccc4ccccc34)oc2-c2ccccc2)cc1
→ i	-1.8	i	0.69	1%	-2.7	2.5
Cc1ccc(CNS(=O)(=O)CCNC(=O)c2ccc3c(c2)OCO3)cc1
→ 1.0	-2.0	i	0.64	2%	2.9	?
CC1CCCC(C)N1/N=C/c1ccc(O)cc1 (stereo not given)
→ .	3.5	i	.	.	-1.6	-1.2
O=C(NC(NC(=O)c1c(F)cccc1F)c1ccc([N+](=O)[O-])cc1)c1c(F)cccc1F
→ 1.9	0.6	i	0.67	6%	-4.5	0.6
COc1cc(/C=C/C(=O)O)cc2c1OCCO2
→ -0.1	-2.4	i	0.7	6%	-2.2	0.7
Cc1nn(CCCC(=O)NCc2ccc(F)cc2)c(C)c1[N+](=O)[O-]
→ 3.3	-1.2	i	0.64	-1%	-0.1	0.9
CCOC(=O)CN1Cc2cccc(C(=O)O)c2C1=O
→ 4.6	1.4	i	0.77	11%	-2.9	3.1
CN1C(=O)/C(=C\c2ccccc2OCc2ccccc2)SC1=S
→ 5.0	0.5	i	0.74	.	5.6	8.4
O=C(CSc1nnc(-c2cccc(Br)c2)o1)NCC1CCCO1 (stereo not given)
→ .	0.3	i	.	.	3.0	.
COc1ccccc1/C=C/c1nc(S(=O)(=O)c2ccccc2)c(NCCN(C)C)o1
→ -110	11	i	0.64	.	1.4	9.8
O=C(OCc1ccccc1)N1CCC2CC1c1c2cccc1N1CCOCC1 (stereo not given)
→ .	3.2	i	.	.	1.7	.

Continuation:
Below each SMILES: UCH37 inh	MLL AF4-AF9 inh	FGF22 binding	E coli growth	Vif TR-FRET	HNF4A DNA FP	RanGTP-Impb inh
O=C(Nn1cnnc1)c1ccc(Cl)cc1[N+](=O)[O-]
→ 0.1	-4.0	i	0.68	.	0.0	-3.9
COCCn1c(Cc2ccccc2)nnc1SCC(=O)N(C)C
→ 4.9	1.4	i	0.73	-3%	-4.8	?
CCOc1ccc(N2C(=O)Nc3ccccc3C2(O)C(=O)NCc2ccc3c(c2)OCO3)cc1 (stereo not given)
→ 1.3	.	.	0.73	1%	0.1	?
CCO[C@@H]1OC(C(=O)N2CCN(C)CC2)=C[C@H](C2CCCCC2)[C@H]1CCCO
→ 4.7	0.2	i	.	-3%	1.1	1.5
CC(C)C(C)NC(=O)COc1ccc(S(=O)(=O)N2CCOCC2)cc1Cl (stereo not given)
→ 2.5	0.2	i	0.68	72%	-1.1	7.9
O=C(N/N=C\c1cccc(F)c1)c1ccc(Cn2cc(Br)c([N+](=O)[O-])n2)o1
→ .	1.7	i	.	.	-1.4	3.0
Cc1cccc(C(=O)N/N=C/c2ccncc2)c1
→ .	.	.	.	-2%	-2.5	-9.2
Cc1ccc2c(c1)C=CC(C#N)N2C(=O)c1ccccc1 (stereo not given)
→ -2.4	1.2	i	0.68	.	-1.5	4.9
O=C(CN1CCN(Cc2ccccc2Cl)CC1)N=Nc1c(O)[nH]c2ccccc12
→ 8.6	-18	i	0.67	.	-1.8	2.0
Cc1cc(NC(=O)CN(C)S(=O)(=O)c2ccc(-c3ccc(=O)[nH]n3)s2)ccc1Br
→ 6.8	-13	i	0.7	.	0.9	-2.2
CC(C)(C)NC(=O)CC1C[C@H](C(=O)N2CCOCC2)[C@@]2(C)c3[nH]c4ccccc4c3CCN2C1=O (stereo not given in full)
→ 4.8	0.7	i	0.7	-6%	4.0	.
CCCCCCN(C(=O)CCCCCN1C(=O)NC(c2ccc(Cl)cc2)C(C(=O)OCc2ccccc2)=C1C)C(C(=O)NCCCC)c1ccc(OCC(=O)OC)c(C(=O)OC)c1 (stereo not given)
→ .	0.6	i	.	25%	.	.
COCCNC(=O)c1onc(CSc2nc3ccccc3[nH]2)c1C(=O)NCCOC
→ 4.2	2.7	i	0.67	.	-0.8	-0.9
CC(C)P(=O)(Cc1cccc(C#N)c1)C(C)C
→ -3.6	.	.	0.68	27%	1.5	?
O=C(CSc1nnc(-c2cccnc2)n1-c1ccc(SC(F)F)cc1)N1CCCc2ccccc21
→ 4.0	-1.2	i	0.69	-10%	1.2	.

Single entries from the list.
Cc1cc(NC(=O)CN(C)S(=O)(=O)c2ccc(-c3ccc(=O)[nH]n3)s2)ccc1Br in UCH37 inh shows 6.8
Cc1ccc2c(c1)C=CC(C#N)N2C(=O)c1ccccc1 (stereo not given) in MLL AF4-AF9 inh shows 1.2

High-throughput results deposited in PubChem by several laboratories.

This is a subset, so the mix of outcomes need not match the whole.
